Bioassay records (PubChem)
D2 PAM: Beta-Arrestin HTS for Positive Allosteric Modulators of the Human D2 Dopamine Receptor: Potentiators. potentiation, % (test concentration not listed). DiscoveRx D2 beta-arrestin cells, luminescence, 90 min; 100% = 57 uM dopamine signal. hit rate 0.23% among 360,000. D(2) dopamine receptor (Homo sapiens), P14416; active = potentiation of 50% or more; inconclusive = 30% to 50%; inactive = 30% or less;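 further: compound concentration not given in the record; tested on top of an EC20 dose of dopamine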
Target sequence (P14416 whole entry, looked up): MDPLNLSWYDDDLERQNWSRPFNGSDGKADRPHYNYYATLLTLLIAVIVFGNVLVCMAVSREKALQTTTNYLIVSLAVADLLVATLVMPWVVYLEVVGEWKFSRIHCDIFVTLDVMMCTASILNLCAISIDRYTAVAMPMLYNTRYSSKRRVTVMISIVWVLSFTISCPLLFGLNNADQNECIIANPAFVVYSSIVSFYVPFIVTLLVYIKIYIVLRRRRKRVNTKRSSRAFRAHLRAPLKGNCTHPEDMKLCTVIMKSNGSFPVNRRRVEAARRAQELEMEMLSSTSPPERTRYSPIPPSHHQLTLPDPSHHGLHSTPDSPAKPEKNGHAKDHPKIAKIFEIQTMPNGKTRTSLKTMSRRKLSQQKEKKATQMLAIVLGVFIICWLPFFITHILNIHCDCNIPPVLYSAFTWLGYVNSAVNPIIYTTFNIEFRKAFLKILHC
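PathHunter beta-arrestin assay in DiscoveRx D2 cells. Compounds were added with an EC20 of dopamine (50 nM final) for 90 min at 37 deg C. Luminescence was read 1 h after detection reagent, with 57 uM dopamine as the EC100 control.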
D2 agonist: Beta-Arrestin HTS for Positive Allosteric Modulators of the Human D2 Dopamine Receptor: Agonists | DiscoveRx PathHunter D2 beta-arrestin, luminescence, 90 min; 100% = 57 uM dopamine signal | activation, % (no concentration beside the values) | hit rate 0.084% among 360,000; in the data active = activation above about 40%; inconclusive = about 15% to 40%; inactive = below about 15%; further: compound concentration not given in the record; the text of the record calls up to 30% inactive
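Agonist mode: compounds alone added to overnight-plated D2 PathHunter cells for 90 min at 37 C, with 57 uM final dopamine (EC100) defining full response. Beta-arrestin recruitment detected by chemiluminescent reagent, read after 1 h at ambient temperature.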
PINK1 expr mod: A Quantitative High throughput Screen to Identify Chemical Modulators of PINK1 Expression; PINK1 immunofluorescence, high-content cytometry, 24 h; Potency, µM (series often up to 76.6 µM), for inactives: top-dose activation (PINK1 increase), hits mostly activators; hit rate 0.2% among 410,000; active = well fitted activation curve with a large enough effect; inconclusive = small, poorly fitted or top-dose-only effect; inactive = flat fitted curve, though single readings scatter; cell line not stated here;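 further: potency means the concentration at half of the fitted maximal effect; % of control where 0% means no effect; nearly all actives have a fitted effect of over 65% in size; a mitochondrial uncoupler was the plate control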
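Stable cell line treated 24 h with compounds at 5 concentrations (CCCP controls), then fixed and immunostained for PINK1 plus nuclear and cell stains; PINK1 immunofluorescence quantified by laser-scanning microplate cytometry.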
Six1-Eya2 blk: qHTS Assay for Inhibitors of the Six1/Eya2 Interaction; Homeobox protein SIX1 (Homo sapiens) + Protein phosphatase EYA2 (Homo sapiens), …; AlphaScreen GST-Six1/His-Eya2 binding, biochemical; hits give low values; control for the full effect not named in the record; activity change, % (test concentration not listed); hit rate 0.56% among 360,000; in the data active = activity change below about -65%; inconclusive = about -30% to -65%; inactive = above about -30%; further: on the % scale 0 is the no-effect control and ±100 the full control effect; compound concentration not given in the record
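GST-Six1 + His-Eya2 (5X stock: 250/500 nM); Tris pH 8.0, 300 mM NaCl, 0.05% BSA, 0.02% Tween 20; GSH donor/Ni acceptor beads; 1 h 37 °C dark; AlphaScreen readout.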
CtBP-E1A inh: qHTS Assay for Inhibitors of the CtBP/E1A Interaction; activity change, % (concentration not given with the values); AID 651724, 2012; hit rate 0.49% among 340,000; AlphaScreen GST-E1A/His-CtBP binding, 1536-well; hits give low values; control for the full effect not named in the record; CtBP / adenovirus E1A interaction (AlphaScreen); in the data active means activity change below about -65%; inconclusive means about -30% to -65%; inactive means above about -30%; further: on the % scale 0 is the no-effect control and ±100 the full control effect
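In 5 uL wells, 23 nL compound meets equimolar GST-E1A and His-CtBP (5X stock 125 nM each) for 2 h, 37 °C. Beads (5X, 50 ug/mL) then 1 h, 37 °C, dark.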
TRPML1 ag: qHTS for Agonists of the Human Mucolipin Transient Receptor Potential 1 (TRPML1). Mucolipin-1 (Homo sapiens), Q9GZU1. TRPML1-expressing cells, Ca2+ dye fluorescence, FDSS; host cell line not named in the record; reference of the full effect not given here. activation, % (test concentration not listed). hit rate 0.12% among 410,000. AID 624414, 2012; in the data active = activation above about 50%; inconclusive = about 30% to 50%; inactive = below about 30%; further: 0% is about no effect; the text of the record puts the active cut at 80%
Target sequence (Q9GZU1 whole entry, looked up): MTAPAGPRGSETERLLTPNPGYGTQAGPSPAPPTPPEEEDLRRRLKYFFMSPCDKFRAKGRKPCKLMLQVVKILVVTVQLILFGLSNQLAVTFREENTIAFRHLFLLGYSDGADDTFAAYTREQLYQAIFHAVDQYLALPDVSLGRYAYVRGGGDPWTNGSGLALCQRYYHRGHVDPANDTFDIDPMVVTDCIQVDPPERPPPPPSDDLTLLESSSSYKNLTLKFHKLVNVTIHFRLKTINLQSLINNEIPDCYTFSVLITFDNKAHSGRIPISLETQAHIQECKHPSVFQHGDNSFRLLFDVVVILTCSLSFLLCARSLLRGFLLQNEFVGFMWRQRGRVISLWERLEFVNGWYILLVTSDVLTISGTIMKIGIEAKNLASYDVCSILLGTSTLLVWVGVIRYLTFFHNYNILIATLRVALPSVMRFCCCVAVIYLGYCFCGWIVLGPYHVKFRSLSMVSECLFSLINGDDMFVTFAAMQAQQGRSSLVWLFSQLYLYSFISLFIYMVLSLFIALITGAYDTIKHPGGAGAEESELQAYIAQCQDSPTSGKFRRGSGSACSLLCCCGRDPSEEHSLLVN
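Calcium fluorescence on an FDSS kinetic reader gave the read-out. Tet-induced TRPML1-DL cells were plated overnight, dye-loaded (Ca8 with quencher, 45-90 min, room temperature, dark), then read 110 s after compound addition, and again 110 s after 4uM final 54-4 (EC80).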
Active calls of the source: *; ? = inconclusive; . = not tested or not shown; [ ] = dose if it differs, or a comment.

Fields – D2 PAM	D2 agonist	PINK1 expr mod	Six1-Eya2 blk	CtBP-E1A inh	TRPML1 ag
- O=C(NCc1ccccc1)c1cc(C2COCCN2C(=O)C/C=C/c2ccccc2)on1 (stereo not given)
→ -3	4.9	0.7%	-3	-1	-0.3
- COc1ccc(S(N)(=O)=O)cc1C(=O)NCC(C)(C)N1CCCCC1
→ -10	-3.8	2.3%	9	9	-0.1
- COc1ccc(NC(=O)CN2CCC(C)CC2)cc1
→ -15	-1.2	12%[38.3 µM]	0	-1	-0.8
- Cc1c(CCCN)c2ccccc2n1Cc1ccccc1
→ -25	-8.1	1.7%	-26	?	.
- COCCNC(=O)C(c1ccc(C)o1)N(Cc1ccc(F)cc1)C(=O)Cn1nnc2ccccc21 (stereo not given)
→ -12	-2.8	-0.5%	0	-4	-0.1
- CC(C)N1CCc2c(sc(N)c2C#N)C1
→ -8	0.6	2.8µM*	-1	2	-0.2
- COc1ccccc1CNCC(=O)Nc1cc(S(=O)(=O)N2CCCCCC2)ccc1Cl
→ -21	0.7	1.7%	-1	-1	-0.3
- CC(C)CCn1nnnc1CN1CCN(C(=O)c2ccco2)CC1
→ 0	-0.2	-0.2%	15	-24	0.5
- COc1ccccc1C1NC(=O)CS1 (stereo not given)
→ -3	-1.0	-2.0%	2	2	-0.6
- CCOc1ccc(C(=O)Nc2c(C(=O)N3CCC(N4CCCCC4)CC3)oc3ccccc23)cc1
→ -51	-4.8	-0.1%	-3	-12	0.3
- COc1cc(C(=O)OC2CCOC2=O)c([N+](=O)[O-])cc1OC (stereo not given)
→ -2	-2.3	-0.5%	-1	13	1.3
- CCN(c1ccccc1)S(=O)(=O)c1ccc(OCC(=O)N2CCCC2)cc1
→ 0	-1.8	-0.5%	-1	.	-0.5
- O=c1c2c(nc3cc(-c4ccc(Cl)cc4)[nH]n13)CCS2
→ 6	1.5	-1.6%	1	4	-0.8
- Cc1csc(NC(=O)CSc2nnc(-c3ccoc3C)o2)n1
→ -4	-1.6	-1.3%	-5	1	0.4
- Cc1ccc(S(=O)(=O)CCC(=O)OCc2nc(N)nc(Nc3ccccc3C)n2)cc1
→ ?	-2.3	-1.1%	-8	-3	-0.8
- COc1cc(NC(=O)CSCc2ccc(Cl)cc2)c(C(=O)O)cc1OC
→ 1	-5.5	1.0%	1	13	-0.3
- Cc1ccc(NC(=O)c2ccc3snnc3c2)cc1
→ -6	-3.2	4.4%	-10	-25	0.2
- COc1ccc(CN(C)CC(=O)Nc2ccccc2C(F)(F)F)cc1
→ -14	-5.9	11%	2	.	0.8
- O=C(CN1C(=O)C(=O)N(C2CCCC2)C1=O)Nc1ccc(Cl)cc1C(F)(F)F
→ -16	-5.4	-0.1%	0	3	0.8
- Cn1cnnc1SCC(=O)Nc1cccc(S(=O)(=O)N2CCCCCC2)c1
→ 8	-2.8	-2.6%	4	-5	0.2
- COc1cccc(NS(=O)(=O)c2cc3c(cc2C)N(C(C)=O)CCO3)c1
→ -4	5.2	0.2%	-4	3	0.2
- CCOc1cc2c3c(c1)C(C)CC(C)(C)N3C(=O)C2=O (stereo not given)
→ -7	-1.2	2.4%[38.3 µM]	-3	-9	1.2
- CCOc1cccc(C(=O)Nc2cccc(C(=O)NC(C)(C)C)c2)c1
→ -20	-2.3	-1.9%	-1	1	1.9
- COc1cccc(NC(=O)CN(C)C(=O)c2ccccc2-c2nc3ccccc3s2)c1
→ -17	-4.9	-1.8%	-7	16	1.2
- O=C(CCNC(=O)c1ccc([N+](=O)[O-])cc1)Nc1nc2ccccc2[nH]1
→ -2	-6.3	17%	4	-1	-0.2
- COc1ccc(C(=O)NCCS(=O)(=O)N2CCCC2)cc1
→ 9	1.6	-2.9%	7	-1	0.1
- O=C(COc1ccc2c3c(c(=O)oc2c1)CCC3)NCC1CCC(C(=O)O)CC1 (stereo not given)
→ -5	-3.0	-1.4%	-3	.	1.1
- CSc1ccc(Cl)c(C(=O)NNC(=O)c2cccs2)c1
→ -3	0.8	3.0%	1	3	-0.8
- O=C(NCCc1ccccc1)C1Cc2c(-c3ccc4c(c3)OCO4)ccnc2O1 (stereo not given)
→ -4	0.6	4.3%	-11	-8	-1.0
- CC12CC3CC(C)(C1)CC(C(=O)Nc1nncs1)(C3)C2
→ 1	3.1	-0.4%	1	-11	1.0

Shown with each value named: entries from further up.
O=C(CCNC(=O)c1ccc([N+](=O)[O-])cc1)Nc1nc2ccccc2[nH]1
- D2 PAM: -2
- D2 agonist: -6.3
- PINK1 expr mod: 17%
- Six1-Eya2 blk: 4
- CtBP-E1A inh: -1
- TRPML1 ag: -0.2
CSc1ccc(Cl)c(C(=O)NNC(=O)c2cccs2)c1
- D2 PAM: -3
- D2 agonist: 0.8
- PINK1 expr mod: 3.0%
- Six1-Eya2 blk: 1
- CtBP-E1A inh: 3
- TRPML1 ag: -0.8
COc1ccc(C(=O)NCCS(=O)(=O)N2CCCC2)cc1
- D2 PAM: 9
- D2 agonist: 1.6
- PINK1 expr mod: -2.9%
- Six1-Eya2 blk: 7
- CtBP-E1A inh: -1
- TRPML1 ag: 0.1
O=C(COc1ccc2c3c(c(=O)oc2c1)CCC3)NCC1CCC(C(=O)O)CC1 (stereo not given)
- D2 PAM: -5
- D2 agonist: -3.0
- PINK1 expr mod: -1.4%
- Six1-Eya2 blk: -3
- CtBP-E1A inh: .
- TRPML1 ag: 1.1

(continued)
Fields – D2 PAM	D2 agonist	PINK1 expr mod	Six1-Eya2 blk	CtBP-E1A inh	TRPML1 ag
- CC1(C(=O)NS(=O)(=O)c2cccc(C#N)c2)CCN1C(=O)Cc1ccc(Cl)cc1Cl (stereo not given)
→ -4	-2.3	0.8%	2	0	-0.5
- COc1ccc(Cl)cc1C(=O)OCC(=O)NCCNC(=O)COC(=O)c1cc(Cl)ccc1OC
→ -10	-2.2	-1.1%	5	2	-0.4
- CC(c1ccccc1)C(NC(=O)OCC1c2ccccc2-c2ccccc21)C(=O)O (stereo not given)
→ 3	1.0	0.3%	-1	2	0.7
- CCN(CC)S(=O)(=O)c1ccc(C(=O)NNc2nc(-c3ccccc3)c3cc(Br)ccc3n2)cc1
→ 17	0.4	0.2%	-28	-2	1.8
- CN(CC(=O)NCc1ccccn1)S(=O)(=O)c1ccc(Br)cc1
→ -10	3.8	-1.3%	12	.	0.3
- Cc1n[nH]c(C)c1N1C(=O)c2cccc3c(Br)ccc(c23)C1=O
→ -17	2.2	6.8%	-10	0	1.0
- Cc1ccc2[nH]c(C(=O)N3CCN(c4cccc(Cl)c4)CC3)cc2c1
→ 0	4.8	10%	-2	2	-0.5
- COc1cc(/C=C/C(=O)NC(C)(C)C)ccc1OCc1ccccc1
→ 14	2.5	-2.0%	1	-1	-0.1
- Cc1cc2nc(-c3ccccc3)c(Cc3ccsc3)n2c(C)c1Br
→ .	.	7.1%	3	1	0.3
- NS(=O)(=O)c1ccc(NC(=O)COC(=O)CCCN2C(=O)c3cccc4cccc(c34)C2=O)cc1
→ -23	1.5	0.3%	-21	-4	-0.3
- COc1cccc(CNC(=O)CCNC(=O)c2ccco2)c1
→ -7	-2.2	2.2%	4	-12	0.6
- OC(CN1CCN(c2ccccc2)CC1)c1ccc2c(c1)CCN2 (stereo not given)
→ -10	0.6	0.8%	-2	-5	0.2
- COc1ccc(OC)c(NC(=O)CSc2nnc(C3CCCCC3)n2N)c1
→ -3	-7.0	0.9%	-4	-8	1.0
- C[C@H](NC(=O)c1nc[nH]c1C(=O)N1CCN(C(=O)OC(C)(C)C)CC1)c1ccccc1
→ 0	0.6	2.0%	5	1	0.1
- O=C(CN1C(=O)NC2(CCCCCC2)C1=O)NCc1ccc(Cl)cc1
→ 1	-3.5	1.2%	3	0	0.3
- O=C(C1=C[C@@H](c2ccc(Br)cc2)C[C@@H](OCCCCO)O1)N1CCOCC1
→ -9	-2.1	-1.1%	-1	4	-0.8
- Cc1ccc(NC(=O)NC(=O)CN2C(=O)NC3(CCc4ccccc43)C2=O)c(C)c1 (stereo not given)
→ -20	-1.4	3.3%	-2	-5	-1.0
- Cc1oc(C(=O)O)cc1CSCc1cc(C(=O)O)c(C)o1
→ -11	-4.6	-0.6%	-12	7	-0.1
- C=CCCC(=O)N1C[C@H]2CON(C)[C@H]2C[C@H]1c1cccc(Oc2ccccc2)c1
→ 1	-5.6	-0.6%	-1	-2	0.1
- COc1cc(/C=C/C(=O)O)cc(S(=O)(=O)N(CC(C)C)CC(C)C)c1OC
→ 1	1.8	0.0%	1	-20	-0.1
- O=C(CN1CCN(S(=O)(=O)c2cccc(Cl)c2)CC1)NCC1(N2CCOCC2)CCCCC1
→ -2	-3.1	-2.3%	-3	8	0.2
- Cc1ccc(/C=C2\SC(=O)N(CCNC(=O)C3CSC4(C)CCC(=O)N34)C2=O)cc1 (stereo not given)
→ 14	-3.3	-1.1%	-6	-8	0.0
- O=[N+]([O-])c1cc(S(=O)(=O)N2CCCC2)ccc1N/N=C/c1cccs1
→ 10	-1.9	14%	-1	2	-0.6
- COCCN(C(=O)Nc1ccccc1)c1ccccc1
→ -6	-4.7	0.9%	-4	4	-0.8
- CN1C[N+]([O-])=C(c2ccccc2)C1(C)C
→ -6	2.0	.	0	5	0.2
- O=C(O)/C=C\C(=O)O
→ -4	-2.6	0.0%	-4	8	0.0
- FC(F)(F)c1ccc(C2[C@H]3CN(CC4CCCCC4)[C@H](c4ccccc4)C34CC2(c2cccnc2)C4)cc1 (stereo not given in full)
→ -14	-3.4	?	-2	1	-0.3
- COc1ccccc1C(=O)Nc1ccc2c(c1)nc1n2CCSC1
→ -11	-3.4	-2.7%[38.3 µM]	-8	-14	0.1
- COc1ccc(/C=N/NC(=O)COc2cccc3ccccc23)c(C(=O)O)c1OC
→ 2	-0.3	-2.4%	4	-2	-0.2
- O=[N+]([O-])c1ccc(OCC(O)CN2CCN(c3ccccc3F)CC2)cc1 (stereo not given)
→ -15	?	-1.3%	9	4	1.0
- CCC(C)c1ccc(-n2c(=O)c3ccccc3n3c(=S)[nH]nc23)cc1 (stereo not given)
→ -2	-1.4	6.7%	3	-1	0.9
- COC(CN(C)C(=O)C1CCCN(S(=O)(=O)c2ccc3c(c2)oc(=O)n3C)C1)OC (stereo not given)
→ 1	5.8	-1.3%	11	-12	0.1
- Cc1ccc(C(=O)O/N=C/c2c(C)nn(C)c2Cl)cc1
→ -8	-5.1	1.1%	4	0	1.3
- O=C(O)Cc1ccc(NC(=O)Cc2ccc3ccccc3c2)cc1
→ 0	14	3.2%	2	8	0.2
